# Vaccinia Venus: inhibitors of vaccinia virus (Venus reporter). Vaccinia virus Venus reporter expression, fluorescence. Potency, µM (titrated, usually from 36.5 µM), for the others: top-dose activity change, negative = inhibition, hits mostly inhibitors. 330,000 tested, 0.46% active. AID 720580; active means well fitted inhibition curve with a large enough effect; inconclusive means small, poorly fitted or top-dose-only effect; inactive means no such curve, though single readings can be large or run the other way; tested in A549 cells; also: nearly all actives have a fitted effect of over 30% in size; inactives centre near -10
# VACV mCherry inh: inhibitors of vaccinia virus infection (mCherry reporter signal); 310,000 tested, 0.63% active; Vaccinia virus mCherry reporter infection, fluorescence; about a quarter of the inactives have no number; Potency, µM (highest dose often 36.5 µM), for the others: at the highest dose activity change, negative = inhibition, most hits filed as inhibitors; active = well fitted inhibition curve with a large enough effect; inconclusive = small, poorly fitted or top-dose-only effect; inactive = no such curve, though single readings can be large or run the other way; tested in A549 cells; also: nearly all actives have a fitted effect of over 35% in size; inactives centre near -10
# * marks the source's active call; other numbers are inactive results; i = inactive; ? = inconclusive; . = not tested or not shown; [ ] = remark or other dose. % is scaled to controls: 0 for no effect and ±100 for the full control effect; potency is read from the fitted curve at half-maximal effect.
SMILES,Vaccinia Venus,VACV mCherry inh
CC(C)OC(=O)/C(=C/c1ccc2c(c1)c1ccccc1n2C)NC(=O)c1ccccc1,-8%,-10%
CSc1ccc(C(=O)C2CCCN(Cc3ccc(N4CCNC4=O)cc3)C2)cc1 (centres undefined),-12%,-1%
COc1ccccc1CNC(=O)CSc1ccc(C(=O)Nc2ccccc2OC)cc1[N+](=O)[O-],-12%,-13%
CCOc1ccc(NS(=O)(=O)c2ccc3[nH]cc(C(=O)NCc4ccccc4)c(=O)c3c2)cc1,11%,0%
COC(=O)c1cc2c(ccn2-c2ccc(F)cc2)n1Cc1cccc(OC)c1,-8%,i
CSc1cccc(NC(=O)N2CCN(S(=O)(=O)c3ccc4c(ccn4C)c3)CC2)c1,4%,0%
Cc1cccc(S(=O)(=O)NC(Cc2c[nH]c3ccccc23)C(=O)O)c1 (centres undefined),-13%,-14%
O=C(NCCc1ccccc1)c1cc(-c2ccc(Br)cc2)on1,6%,-8%
O=[N+]([O-])c1cccn2cc(-c3ccc(Br)cc3)nc12,-28%,?
O=S(=O)(c1ccc(F)cc1)N1CCC(Oc2cccc(C(F)(F)F)c2)CC1,-3%,-6%
CCOc1ccc2nc(N3CCCC(C(=O)NCCCOC)C3)sc2c1 (centres undefined),-7%,3%
Cc1ccc(NC(=O)c2cnccn2)cc1S(=O)(=O)N1CCCCCC1,-20%,-5%
O=C(O)c1ncc(Cl)c(Cl)c1Cl,-12%,-6%
Cc1cccc(Nc2nnc(-c3ccc(C)c(S(=O)(=O)N4CCOCC4)c3)c3ccccc23)c1,-22%,-11%
Cc1nnc(SCc2cccc(Cl)c2)n(N)c1=O,-4%,i
COc1ccccc1C(=O)N1CCN(C(=O)Cc2ccccc2)CC1,4%,-16%
CN1CCN(CCCNC(=O)C2CC(=O)N(C3CCCCC3)C2)CC1 (centres undefined),-18%,.
N#Cc1nc(/C=C/c2ccc(F)cc2)oc1N1CCN(c2ccccc2)CC1,-4%,-17%
O=C(CSc1n[nH]c(-c2ccccc2)n1)c1ccccc1,-18%,-2%
COC(=O)n1c(SC)nc2ccccc21,-19%,-5%

# Full records as entered above:
# COc1ccccc1CNC(=O)CSc1ccc(C(=O)Nc2ccccc2OC)cc1[N+](=O)[O-] in the list: Vaccinia Venus = -12%; VACV mCherry inh = -13%
# Cc1cccc(Nc2nnc(-c3ccc(C)c(S(=O)(=O)N4CCOCC4)c3)c3ccccc23)c1 in the list: Vaccinia Venus = -22%; VACV mCherry inh = -11%

# Additional entries follow.
SMILES,Vaccinia Venus,VACV mCherry inh
CN1/C(=C\C=N\O)C(C)(C)c2ccccc21,-5%,-1%
O=C(c1[nH]ncc1-c1ccc(Cl)cc1)C1CO1 (centres undefined),-21%,i
O=C(O)CCCNc1cc(N2CCN(C(=O)c3ccco3)CC2)c2noc3c2c1C(=O)c1ccccc1-3,300%[activator],i
Cc1ccccc1C(=O)Nc1sc2c(c1C(=O)N1CCC(C)CC1)CCC(C)C2 (centres undefined),2%,-13%
CC(C)(C)c1ccc(NC(=O)COC(=O)c2ccccc2OCC(=O)Nc2ccc(Br)cc2)cc1,-25%,-22%
O=C(c1cc(-c2ccc(Cl)c(Cl)c2)on1)N1CCCCC1,0%,-10%
O=C(Nc1cccc(Cl)c1)Nc1c[nH]c(=O)[nH]c1=O,1%,-9%
Cc1ccc(-c2csc(NCCc3nc4cc(Cl)c(Cl)cc4n3CCCO)n2)cc1,-18%,?
Cc1ccc(C)c(NC(=O)CN2C(=O)C3CC=CCC3C2=O)c1 (centres undefined),-1%,-13%
CC1(C(=O)NCc2ccccc2)CN(S(C)(=O)=O)CC(=O)N1Cc1ccc2c(c1)OCO2 (centres undefined),-8%,-18%
Cc1ccc(S(=O)(=O)N2CCCCC2)cc1NC(=O)CSc1nnc(C2CC2)n1N,-5%,-6%
COc1cccc(N(CC(=O)NC2CCCC2)C(=O)CCC(=O)Nc2cc(C)on2)c1,-5%,i
NS(=O)(=O)c1cccc(NC(=O)c2ccccc2NS(=O)(=O)c2ccc(F)cc2)c1,-2%,-3%
Cc1cncn1CCc1nc2c3ccccc3nc(SCC(=O)Nc3ccccc3F)n2n1,-18%,-21%
CCn1c(=O)c(C(=O)NCc2ccc3c(c2)OCO3)c(O)c2ccccc21,-20%,-1%
O=C(O)c1ccc(S(=O)(=O)c2ccc3c(c2)C(=O)N(NC(=O)c2ccccc2)C3=O)cc1,-5%,-6%
COc1cc(/C=N/NC(=O)Cc2cccs2)c([N+](=O)[O-])cc1OC,-8%,i
CCOCCCn1c(=S)[nH]c2cc(C(=O)NCCCN(CC)CC)ccc2c1=O,-6%,-3%
COc1ccccc1CNc1cc(CSc2ccc(Cl)cc2)nc(C)n1,-24%,.
CCCCn1c(N)c(N(CCC(C)C)C(=O)c2ccc(N3CCCC3=O)cc2)c(=O)[nH]c1=O,0%,-9%
Cc1ccc2nc(N(CCCN(C)C)C(=O)c3ccco3)sc2c1,3%,-4%
CCOC(=O)c1c(C)[nH]c(C(=O)OC(C)C(=O)Nc2ccc(C)cc2)c1C (centres undefined),-14%,i
CCOc1ccc(C(=O)N2CCN(Cc3cc(=O)n4nc(-c5cccc(OC)c5)sc4n3)CC2)cc1,-19%,?
Cc1ccc(CS(=O)(=O)Cc2ccc(C(=O)NCc3ccccn3)o2)cc1,1%,?
COC(=O)[C@]1(C)N[C@H](CN(C)S(=O)(=O)c2ccccc2)[C@@H]2C(=O)N(C)C(=O)[C@@H]21,-3%,i
O=S(=O)(c1ccc(Cl)cc1)c1cnc2ccccc2n1,-4%,-9%
CC(=O)c1ccc(OCCCC(=O)Nc2cc(S(=O)(=O)N(C)C)ccc2C)cc1,-15%,-1%
CN(Cc1ccccc1)Cc1nc2scc(-c3ccccc3)c2c(=O)[nH]1,-14%,-1%
Cc1c(Cl)c([N+](=O)[O-])nn1CC(=O)NCc1cccs1,-10%,-22%
Cc1cccc([C@@H]2C[C@H]3CN(Cc4cccc(Cl)c4)C(=O)[C@]34CCCN24)n1,-9%,-10%
Cn1c2c(c(=O)n(C)c1=O)C(NS(=O)(=O)c1ccccc1)(C(F)(F)F)C(=O)N2 (centres undefined),-12%,-28%
Cc1ccc(NS(=O)(=O)c2ccc(NC(=O)C3CCCO3)cc2)cc1 (centres undefined),-13%,-17%
CCOC(=O)c1cc(NC(=O)c2ccc(C)cc2)c(=O)n2c1oc1ccccc12,-2%,-2%
CCCCCC(=O)N1CC2(CC(c3cccc(NC(=O)c4ccccc4)c3)=NO2)C[C@@H]1C(N)=O (some centres undefined),-25%,-5%
Cc1nc(-c2ccc(C(=O)Nc3ccccc3F)cc2)cs1,-16%,i
Cc1nc(SCC(=O)NC(C)c2ccccc2)c2oc3ccccc3c2n1 (centres undefined),-4%,16%
CCOC(=O)c1cnn(-c2ccccc2)c1N,-5%,i
CCN1CCN(CCNC(=O)c2ccc(CS(=O)c3ccc(Cl)cc3)o2)CC1 (centres undefined),-11%,i
CN(C(=O)c1cccc(NC(=O)Cc2cccc(NC(=O)C3CCCN(C(=O)C4CC4)C3)c2)c1)C1CCC1 (centres undefined),-8%,-3%
CC(=O)c1ccc(N2CCN(C(=S)Nc3ccccc3F)CC2)cc1,-15%,-3%
CCC(=O)c1ccc(OCC(O)CN2C(=O)NC(C)(C)C2=O)cc1 (centres undefined),-11%,11%
Cc1cc(C)cc(NC(=O)C(OC(=O)c2cccs2)c2ccccc2)c1 (centres undefined),-14%,i
Cc1ccc(S(=O)(=O)NCC(C)n2nc(C)nc2C)cc1 (centres undefined),7%,-3%
Cc1ccccc1NC(=O)CSc1nnc(CNC(=O)c2ccco2)n1C,0%,-14%
CCN(CC)c1ccc(C(=S)N2CCN(c3ccccc3)CC2)cc1,-8%,-14%
COCc1cc(C)[nH]c(=O)c1C(=O)NC12CC3CC(CC(C3)C1)C2,-13%,0%
O=C(NCCCN1CCCCC1)c1ccc2c(c1)sc1nc(-c3ccc(F)cc3)cn12,?,-21%
CC(C)C(=O)Nc1ccc(-c2nc3ccccc3c(=O)o2)cc1,0%,i
CC(C)(CSc1ccccn1)NS(=O)(=O)c1ccc(Cl)cc1,-10%,-8%
COc1ccc(C(CC(=O)Nc2ccc(F)cc2)c2ccccc2)cc1 (centres undefined),?,-8%
Cc1csc(NC(=O)CSC2=NCCS2)n1,?,?
O=C(NN=C1CCCC1)c1sc2ccccc2c1Cl,-9%,-22%
Cc1ccc(CN2C(=O)c3ccccc3C2c2nnnn2-c2ccc3c(c2)OCCO3)cc1 (centres undefined),-1%,28%
Cc1c(-c2nnc(SCC(=O)Nc3ccc(Cl)cc3)o2)nnn1-c1ccc(F)cc1,-2%,7%
Cc1cc(C)cc(NC(=O)C(=O)NCc2ccccn2)c1,-4%,-6%
COc1cccc2cc(C(=O)NCc3ccccn3)c(=O)oc12,-5%,i
CCOc1ccc(Cc2c(O)[nH]c(=O)[nH]c2=O)cc1,-16%,.
Cc1ccc(S(=O)(=O)NCCC(=O)Nc2cc(F)ccc2C)cc1C,-17%,-14%
COC(=O)c1c(NC(=O)C2CCCO2)sc2c1CCC2 (centres undefined),?,.
CC(C)c1nnc(NC(=O)CSc2nnc(-c3ccco3)o2)s1,-5%,1%

# By substructure: the entries above with a CF3 group (2)
SMILES,Vaccinia Venus,VACV mCherry inh
O=S(=O)(c1ccc(F)cc1)N1CCC(Oc2cccc(C(F)(F)F)c2)CC1,-3%,-6%
Cn1c2c(c(=O)n(C)c1=O)C(NS(=O)(=O)c1ccccc1)(C(F)(F)F)C(=O)N2 (centres undefined),-12%,-28%

# Later entries
SMILES,Vaccinia Venus,VACV mCherry inh
COc1cc2c(cc1OC)C(C)N(C(=O)c1cc3c(s1)-c1ccccc1OC3)CC2 (centres undefined),14%,6%
CCCNc1c(NS(=O)(=O)c2ccc(Br)cc2)c(=O)oc2ccccc12,-7%,0%
CN(C)CCNC(=O)c1[nH]nc2c1CCc1ccccc1-2,-3%,-17%
Cc1cc(C)cc(N2CC(C(=O)NC3CCCCC3)CC2=O)c1 (centres undefined),-10%,-12%
CSc1nc2nc(C)c(CCC(=O)OCC(=O)Nc3ccc(F)cc3)c(C)n2n1,-10%,-7%
COc1cc(/C=C/C(=O)O)cc(S(=O)(=O)Nc2cc(C(F)(F)F)ccc2N2CCOCC2)c1OC,-4%,-12%
COc1ccccc1C(=O)NCCC(=O)NCC(C)(C)N1CCOCC1,4%,-14%
O=c1oc2ccccc2cc1-c1cn2cc(Cc3cc(Cl)ccc3Cl)sc2n1,-8%,-6%
COc1ccc(CNC(=O)CSc2n[nH]c(C)c2[N+](=O)[O-])cc1,-6%,-10%
CC(=O)Nc1nnc(SCC(=O)NCC2CCCO2)s1 (centres undefined),-12%,i
O=C(NCCC1CCCCN1S(=O)(=O)c1cccs1)C(=O)Nc1ccccc1 (centres undefined),-13%,i
CCOC(=O)Cc1csc(NC(=O)CSc2nnc(C(C)C)n2C)n1,-8%,-8%
Cc1ccccc1OCC(=O)NNC(=O)c1ccc2c(=O)n3c(nc2c1)CCC3,-7%,-7%
COC(=O)CN1C(=O)[C@H]2[C@@H](c3ccc(C)o3)N3C(=O)CN(CCO)C(=O)[C@@]3(Cc3ccccc3)[C@H]2C1=O,3%,-5%
CC(C)(O)[C@H]1O[C@H]2CC[C@@]3(C)[C@@](O)(CC[C@H]4Cc5c([nH]c6ccccc56)[C@@]43C)C2=CC1=O,-13%,?
O=C(CCc1nc2ccccc2c(=O)[nH]1)Nc1nnc(SCc2ccc(Cl)cc2)s1,10%,-2%
CCOC(=O)C1=C(C)N(C[C@@H]2CC[C@@H](Cc3ccc(-c4ccccc4)cc3)O2)C(=O)NC1c1cccc2ccccc12 (some centres undefined),?,-2%
O=C(NCc1ccccn1)C(=O)NCC1OCCCN1S(=O)(=O)c1ccc(F)cc1 (centres undefined),-11%,i
Cc1ccccc1NC(=O)CNC(=O)Cc1cccc2ccccc12,-9%,-21%
Cc1cc(C)cc(NC(=O)C(C)N2C(=O)c3ccccc3C2=O)c1 (centres undefined),6%,-7%

# Some of these compounds in order of molar mass, ascending:
SMILES,Vaccinia Venus,VACV mCherry inh
CC(=O)Nc1nnc(SCC(=O)NCC2CCCO2)s1 (centres undefined),-12%,i
CCOC(=O)Cc1csc(NC(=O)CSc2nnc(C(C)C)n2C)n1,-8%,-8%
CSc1nc2nc(C)c(CCC(=O)OCC(=O)Nc3ccc(F)cc3)c(C)n2n1,-10%,-7%
COc1cc2c(cc1OC)C(C)N(C(=O)c1cc3c(s1)-c1ccccc1OC3)CC2 (centres undefined),14%,6%
COc1cc(/C=C/C(=O)O)cc(S(=O)(=O)Nc2cc(C(F)(F)F)ccc2N2CCOCC2)c1OC,-4%,-12%

# Other records
SMILES,Vaccinia Venus,VACV mCherry inh
CC(=O)Nc1ccc(NC(=O)c2ccccc2Nc2ccccc2)cc1,-11%,?
CCc1ccc(OCCCC(=O)Nc2nccs2)cc1,-4%,i
Cc1ccc(S(=O)(=O)c2nc(S(C)(=O)=O)sc2NCc2ccccc2)cc1,-17%,-9%
CN1C(=O)C(=Cc2ccc(N3CCCCC3)o2)C(=O)N(C)C1=S,26%,.
Cc1nc(NCc2ccccc2)c(C(N)=O)c2c1COC(C)(C)C2,-15%,.
COc1ccc2[nH]c(=O)c(CN(C(=O)c3cccc(Cl)c3)c3cccc(C)c3)cc2c1,-15%,-15%
CC(=O)Nc1ccc(NC(=O)CSc2ccc(-c3ccc4c(c3)OCO4)nn2)cc1,-4%,-11%
CN(c1ccccc1)S(=O)(=O)c1ccc(C(=O)NCc2ccccn2)cc1,-8%,i
CCN(CC)C(=O)c1ccccc1NS(=O)(=O)c1cccs1,-6%,-14%
Cc1cc(=O)oc2c(C)c(OCC(=O)N3CCN(Cc4ccc5c(c4)OCO5)CC3)ccc12,-16%,-18%
CSc1ccc(Cl)c(C(=O)Nc2ccc(N3CCOCC3)cc2)c1,-2%,i

# Rows were taken by chance (roughly 0.88% active in at least one column).
